# Yeast UUG start: alters start codon recognition fidelity in yeast | S. cerevisiae UUG-firefly luciferase reporter, luminescence/redox ratio | activity score, % at 18.7 µM | 0.13% of 350,000 active;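 active means replicate mean at a twofold rise or more, about +100% in these data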;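 further: firefly luciferase made from a UUG start codon reports start codon fidelity; reporter light over untreated wells divided by growth signal over untreated wells; some hits fall short of that in this replicate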
# HIV Env fusion: HIV envelope-mediated fusion inhibition. 1.1% of 360,000 active. inhibition, % at 12.3 µM. HeLa-JRFL Env/CEM21 cell fusion, luciferase;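 active means mean replicate inhibition score of at least 50 and every replicate individually at or above 50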;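 further: 0% = plate neutral controls and 100% = maraviroc near 300 nM; one replicate is shown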
# CSC inhib: blocks cancer stem cells; cancer stem cell-like cells viability, luminescence; inhibition, % at 7.5 µM; 1.1% of 300,000 active;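 active means mean at 75% or more and at least half the replicates too; tested in HMLE shEcad cells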;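 further: 0% = median of negative and 100% = median of positive control wells; the first replicate is given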
# Rce1 inhib: inhibitors of yeast Ras-converting enzyme | Q03530 | yeast membranes, quenched prenylated peptide cleavage fluorescence | calls only | 0.27% of 290,000 active;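 active means fall in fluorescence gain of 50% or more versus controls, with final raw signal at or below 3038400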;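 further: plate controls were neutral control wells for no effect and wells lacking membranes for full effect; tested at 10 µM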
# Target sequence (Q03530 whole entry, looked up): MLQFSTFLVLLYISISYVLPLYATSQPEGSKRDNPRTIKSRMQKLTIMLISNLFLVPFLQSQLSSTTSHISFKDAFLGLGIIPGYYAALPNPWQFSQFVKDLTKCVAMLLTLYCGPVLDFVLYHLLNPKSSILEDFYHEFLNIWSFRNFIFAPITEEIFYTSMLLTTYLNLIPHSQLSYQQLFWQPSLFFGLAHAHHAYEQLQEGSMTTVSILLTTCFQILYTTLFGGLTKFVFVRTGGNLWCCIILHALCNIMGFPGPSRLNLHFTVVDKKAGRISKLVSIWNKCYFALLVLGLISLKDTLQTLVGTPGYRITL
# MT1-MMP act inh: MT1-MMP (human) activation inhibition. GFP/RFP ratio change, % at 20 µM. HT1080 RFP-PRO-GFP cells, GFP/RFP ratio fluorescence, overnight; percent of plate control window, DMSO zero. 0.061% of 360,000 active;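 active means GFP/RFP ratio change of at least 30% with cell ATP level not reduced by more than half and red fluorescence within 50% of control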; further: strong numbers were not always called active
#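 Assay system: HT1080 cells carrying an RFP-PRO-GFP reporter | Dosing: Single dose of 20 µM compound, 1% DMSO final | Incubation: Cells overnight before dosing, compound overnight, 37 °C, 5% CO2 | Evaluation: GFP/RFP fluorescence ratio | Control set: DMSO and RFP-L50D-GFP cell wells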
# eIF4H inh: inhibitors of RNA binding by human eIF4H. eIF4H fluorescence polarization binding assay. inhibition, % at 35 µM. 0.94% of 290,000 active;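 active means 50% or more with normal probe brightness, or confirmed in later tests; about a fifth of its hits are not listed in these tables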;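 further: calls also rest on retests at 20 µM and on dose response follow-up; 0% = protein and probe with vehicle and 100% = probe without protein; strong numbers were not always called active; many hits fall short of the cut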
# PABP polyA inh: blocks human PABP binding to poly(A) RNA. 1% of 290,000 active. P11940. inhibition, % at 35 µM. fluorescence polarization;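 active means 50% or more with normal probe brightness, or confirmed in later tests; about a fifth of its hits are not listed in these tables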;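 further: calls also rest on retests at 20 µM and on dose response follow-up; controls were probe without protein and protein plus probe with vehicle; some compounds called inactive have numbers as strong as hits; many hits fall short of the cut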
# eIF4H inh retest: also measured in eIF4H inh; calls as there; inhibition, %; compound at 20 µM; confirmation average;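 mean of two retest wells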
# PABP polyA inh retest: second read-out of PABP polyA inh, no call of its own (marks repeat the call); inhibition, %; compound at 20 µM; confirmation repeats;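 mean of two retest wells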
# MT1-MMP act inh RFP: further read-out of MT1-MMP act inh, marked with its call; RFP signal change, %; measured here: RFP expression control read;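 0 = vehicle wells; hits needed this value within 50% of zero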
# Active calls of the source: *; i = inactive; x = not tested or not shown.
# The opening two entries, to show the layout:
SMILES,Yeast UUG start,HIV Env fusion,CSC inhib,Rce1 inhib,MT1-MMP act inh,MT1-MMP act inh RFP,eIF4H inh,PABP polyA inh,others
Nc1nnnn1CC(=O)N/N=C/c1cc([N+](=O)[O-])ccc1O,-12.3,-26.4,-23.2,i,6.1,3.0,21.4,37.9,
Cc1ccc(N=C2NC(=O)/C(=C\c3ccsc3)S2)c(C)c1,-28.9,x,21.8,i,-8.0,-7.1,4.8,-0.2,

# This part in full, repeating the preview:
SMILES,Yeast UUG start,HIV Env fusion,CSC inhib,Rce1 inhib,MT1-MMP act inh,MT1-MMP act inh RFP,eIF4H inh,PABP polyA inh,others
Nc1nnnn1CC(=O)N/N=C/c1cc([N+](=O)[O-])ccc1O,-12.3,-26.4,-23.2,i,6.1,3.0,21.4,37.9,
Cc1ccc(N=C2NC(=O)/C(=C\c3ccsc3)S2)c(C)c1,-28.9,x,21.8,i,-8.0,-7.1,4.8,-0.2,
CC1(C)CC2CC(C)(CN2C(=O)COC(=O)c2n[nH]c(=O)c3ccccc23)C1 (stereo unspecified),10.4,x,-11.2,i,2.1,4.7,5.7,-9.1,
N#CCSc1ncnc2sc3c(c12)CCC3,-12.9,-96.7,6.3,i,-8.7,3.2,6.9,19.8,
CC1CCN(S(=O)(=O)c2cc(F)ccc2CN2C(=O)c3cccnc3C2=O)CC1,-8.4,-2.0,4.0,i,3.2,3.3,3.4,-0.4,
Cc1ccccc1Nc1cccc2nonc12,-5.4,-5.0,2.7,i,-26.6,3.0,2.0,2.7,
O=C(CN1C(=O)c2ccccc2S1(=O)=O)Nc1cc(S(=O)(=O)N2CCCCC2)ccc1Cl,-2.1,5.3,x,x,0.0,-0.7,x,x,
O=C(Nc1ccc(Cl)c(Cl)c1)N(CCCN1CCOCC1)Cc1cccs1,16.9,8.6,-7.3,i,-2.4,-3.6,-10.3,-3.4,
O=C(NCc1ccc(F)cc1)N1CCc2ccccc2C1,-1.3,23.4,1.3,i,-1.0,1.6,-10.6,-1.3,
CN(C)S(=O)(=O)n1cnc(-c2ccccc2)c1-c1ccccc1,-3.9,-16.1,66.6,i,-0.8,1.1,-3.2,-11.9,
Cc1cccn2cc(CNS(=O)(=O)c3cccc(F)c3)nc12,-12.4,4.9,-0.3,i,4.2,3.3,-13.7,-4.9,
CC(C)C[C@H]1CN=C(Nc2ccccc2)N1CC1CCC(C)CC1 (stereo partly specified),-17.0,x,2.2,i,3.7,-3.8,2.2,-5.9,
Cc1nc2ccccc2nc1SCC(=O)c1ccccc1,x,14.2,4.9,i,-2.6,-11.9,0.4,16.6,
COc1cc2c(cc1OC)C(COc1ccccc1OC)N(C(=O)C(C)(C)C)CC2 (stereo unspecified),5.2,16.4,-6.0,i,2.1,-1.2,6.1,5.1,
CCOC(=O)Cc1ccc(Nc2nc(NCCOC)nc3ccsc23)cc1,-14.1,20.3,x,x,4.1,-6.3,x,x,
CC(=O)N/N=C/c1ccc(OCCOc2ccc(Br)cc2)cc1,-8.3,x,4.2,i,-0.7,-6.0,1.7,13.6,
C=CCSc1nnc(NC(=O)CCNC(=O)c2ccccc2Cl)s1,-8.0,8.6,x,x,4.2,3.6,x,x,
CN=C1SC(C(=O)Nc2ccccc2Cl)CC(=O)N1c1ccc(OC(F)(F)Cl)cc1 (stereo unspecified),x,9.4,5.8,i,4.2,5.0,0.6,12.8,
CCOC(=O)c1cnc2ccc(OCC)cc2c1NCCCN1CCOCC1,-15.5,-4.3,-9.7,i,4.5,-1.6,-1.0,7.0,
COc1ccc(C(=O)OCC(=O)NCc2ccco2)cc1OC,7.8,x,x,i,4.3,4.5,89.3*,28.9,eIF4H inh retest=62.4*;PABP polyA inh retest=35.6
OCCCNC(c1ccccc1)c1ccc(O)cc1 (stereo unspecified),-5.5,x,-5.9,i,-2.3,6.6,11.9,2.7,
COc1cccc(NC(=O)CSc2nccn(-c3ccc4c(c3)OCCO4)c2=O)c1,-23.1,1.8,-14.7,i,0.9,2.0,x,x,
O=C(Nc1ccccc1)c1cc(N2CCOCC2)nc2ccccc12,-17.2,x,-11.9,i,x,x,-1.6,7.8,
Cc1cc(Cl)ccc1OC(C)C(=O)NCCCn1ccnc1 (stereo unspecified),x,17.9,0.4,i,0.1,2.1,2.1,-8.8,
CCOC(=O)c1[nH]c2ccccc2c1NC(=O)CC(C)(C)C,-18.4,3.3,-6.4,i,-2.4,1.6,-9.9,9.1,
COc1ccc(N2CCN(C(=O)c3ccc(NS(=O)(=O)c4ccc(F)cc4)cc3)CC2)cc1,-13.9,4.9,9.3,i,3.5,-2.8,8.2,18.1,
CC1(C)NC(=O)N(CCOc2ccc3c(c2)CCC3)C1=O,6.9,30.6,1.8,i,4.5,-2.5,-11.3,-11.2,
COc1ccc(CNS(=O)(=O)c2cc(CN3C(=O)c4cccnc4C3=O)ccc2OC)cc1,-7.3,11.0,12.1,i,-1.6,7.7,0.1,-8.3,
O=c1c2c3c(sc2nc2n1CCCC2)CCC3,-2.1,x,12.8,i,-4.6,-0.3,3.0,2.6,
CCN1C(=O)CCN(C2CCCC2)c2nc(Nc3ccc(C(=O)NC4CCN(C)CC4)cc3OC)ncc21,-14.8,-57.8,x,x,18.6,1.4,x,x,

# Pulled by compound from the entries so far:
SMILES,Yeast UUG start,HIV Env fusion,CSC inhib,Rce1 inhib,MT1-MMP act inh,MT1-MMP act inh RFP,eIF4H inh,PABP polyA inh,others
CCN1C(=O)CCN(C2CCCC2)c2nc(Nc3ccc(C(=O)NC4CCN(C)CC4)cc3OC)ncc21,-14.8,-57.8,x,x,18.6,1.4,x,x,
O=C(Nc1ccccc1)c1cc(N2CCOCC2)nc2ccccc12,-17.2,x,-11.9,i,x,x,-1.6,7.8,
CCOC(=O)c1[nH]c2ccccc2c1NC(=O)CC(C)(C)C,-18.4,3.3,-6.4,i,-2.4,1.6,-9.9,9.1,

# Next records
SMILES,Yeast UUG start,HIV Env fusion,CSC inhib,Rce1 inhib,MT1-MMP act inh,MT1-MMP act inh RFP,eIF4H inh,PABP polyA inh,others
COc1ccc(N2CCOCC2)c(NC(=O)c2cc3ccccc3o2)c1,4.7,11.1,x,i,-2.3,-3.5,-14.1,-2.9,
Cc1cc2oc(=O)cc(CN3CCOCC3)c2cc1Cl,18.0,2.8,1.7,i,-1.4,1.5,-0.6,-6.5,
CCc1ccccc1NC(=O)CSc1nnc(-c2ccncc2)o1,x,11.1,-8.7,i,3.8,0.7,-1.2,8.2,
Cc1[nH]c2ccccc2c(=O)c1CN1CCCCCC1,6.8,19.2,12.4,i,-5.7,0.9,-0.9,0.3,
Cc1ccc2c(c1)N(C(=O)CCC(=O)NC1CCC(C)CC1)CCO2 (stereo unspecified),-11.7,10.5,11.5,i,7.1,3.6,14.8,0.0,
Cc1ccc(/C=C/C(=O)Oc2ccc(C#N)cc2)o1,x,x,-21.4,i,x,x,-2.4,-6.3,
CCOc1ccc(N(CC(=O)NC2CCCC2)S(=O)(=O)c2c(C)[nH]c(=O)[nH]c2=O)cc1,-7.7,1.4,1.7,i,3.3,4.8,8.2,-14.2,
CC1(C)Cc2c(cnn2-c2cccc(F)c2)C(NC(=O)C2CCOCC2)C1 (stereo unspecified),-2.2,-9.9,-5.4,i,-0.1,2.0,-5.0,9.2,
Cc1cc(Cl)c(C(=O)Nc2cccc(C(F)(F)F)c2)c(C)n1,-20.9,-6.5,26.2,i,-2.2,-1.7,-4.6,0.3,
O=C1C=C(c2ccc(CO)cc2)C[C@@H](c2ccc3c(c2)OCO3)C1,4.1,2.1,13.2,x,3.7,2.5,x,x,
Cc1ccc(N/N=C2\CC(=O)c3ccccc32)cc1Cl,x,x,76.8*,i,x,x,-0.5,-3.3,
CC(=O)c1ccc(COC(=O)c2ccccc2NC(=O)C(C)C)cc1,x,x,4.7,i,x,x,4.0,-1.6,
COc1ccc(NC(=O)CC2SC(=O)NC2=O)cc1 (stereo unspecified),x,-92.8,10.4,i,1.6,5.8,-3.2,7.2,
Cc1cccc(C)c1NC(=O)Cn1c(CN2CCCCC2)nc2ccccc2c1=O,-4.6,x,6.2,i,2.8,1.7,12.5,6.0,
CC(C)(C)c1ccc(S(=O)(=O)NCc2ccc(C(=O)N3CCOCC3)cc2)cc1,-20.1,-6.9,16.2,i,7.3,-1.4,3.3,-1.6,
CCCCc1ccc(NC(=O)CSC2=NN3CCCC(=O)N=C3S2)cc1,-18.5,20.0,x,i,1.9,-19.1,2.3,0.1,
NS(=O)(=O)c1ccc(N=Nc2c(-c3ccccc3)[nH]n(-c3nc(-c4ccccc4)cs3)c2=O)cc1,-21.0,-4.0,-6.9,i,11.5,-2.8,-17.7,-12.4,
Cc1c(C(=O)N2CCN(Cc3ccccc3)CC2)oc2c1C(=O)CCC2,-14.9,17.3,-10.7,i,-1.1,0.1,2.0,-6.1,
COc1cc(OC)cc(C(=O)NC(=S)NNC(=O)[C@H]2C[C@@H]2c2ccccc2)c1,-24.9,0.2,25.9,i,9.0,1.4,4.8,1.6,
C=COC(=O)CSc1snc(SCC(=O)OC)c1C#N,-17.4,x,-2.1,i,1.7,5.0,2.6,14.8,
COc1cccc(-n2nnnc2SCC(=O)NC2CCCC2)c1,-20.6,6.4,-13.3,i,-4.4,2.5,-8.3,3.2,
COc1cc(NC(=O)c2cc(C)on2)cc(OC)c1OC,x,x,-2.5,i,5.8,1.5,0.6,2.5,
COC(=O)c1ccc(/C=N/NC(=O)C(=O)NCC2CCCO2)cc1 (stereo unspecified),x,-6.3,14.1,i,-2.5,-2.9,7.2,-8.0,
COc1ccc(NC(=O)CSc2nccn2Cc2ccccc2)c(OC)c1,-17.3,-9.5,3.2,i,3.6,-1.2,0.4,-6.1,
O=c1[nH]c(CN2CCc3ccccc32)nc2scc(-c3cccs3)c12,4.1,x,26.6,x,-3.6,2.2,23.2,35.2,
CCCOc1nc(C)cc(COC)c1C(N)=O,x,14.1,-0.8,i,-1.0,4.6,-10.4,6.9,
O=C(c1ccccc1)N(Cc1nc2ccccc2c(=O)[nH]1)C1CCCCC1,x,-2.8,1.7,i,-0.1,-0.9,9.2,9.7,
Cc1cc(N2CCCCC2)nc(N2CCCCC2)n1,x,-3.8,11.8,i,-4.9,-2.9,4.8,7.4,
C(#Cc1ccccc1)C[N+]1(CC#Cc2ccccc2)CCCCC1,-12.4,35.6,1.9,i,-2.8,-16.6,-11.7,-13.4,
CCOc1ccc(NC(=O)CN(C)C(=O)CSCc2ccc(C)cc2)cc1OCC,2.9,2.4,-7.8,i,x,x,x,x,
COc1cccc(NC(=O)CN(C)C(=O)Cc2ccc(Cl)cc2Cl)c1,-12.1,-6.2,-5.5,i,3.9,2.8,-10.1,3.9,
Cc1ccc(NC(=O)c2ccc(NC(=O)C3CCCCC3C(=O)O)cc2)cc1 (stereo unspecified),-8.3,3.6,-4.2,i,-1.9,0.3,-1.0,-6.4,
Cc1ccc(C)c(NC(=O)C(Sc2nc3ccccc3c(=O)n2CC(C)C)c2ccccc2)c1 (stereo unspecified),x,-6.6,28.1,i,2.3,2.0,-1.6,-4.9,
COc1ccc(/C=C2\SC(=S)N(CCC(=O)N3CCCCC3CCO)C2=O)cc1 (stereo unspecified),-9.6,9.0,8.2,i,-5.1,-1.4,-15.6,9.2,
CCN(CC)C(=S)NC(=O)c1ccc(F)cc1,-14.3,-4.3,10.6,i,-5.2,-0.9,8.5,-9.5,
CSc1ccccc1C(=O)N(C)Cc1ccccc1,35.9,-8.8,-1.2,x,0.7,3.9,-3.8,4.1,
CCCn1nnc(NC(=O)C(C)C)n1,-1.2,4.6,-15.5,i,-0.3,0.5,-15.3,-0.1,
CC1Cc2nc(SCC(=O)N3CCN(c4ccccc4)CC3)n(C)c(=O)c2S1 (stereo unspecified),-9.7,14.6,-5.3,i,-2.7,-2.2,-17.3,-6.0,
Cc1cccc(NC(=O)NC(=S)NC(=O)c2ccccc2)c1,x,-350.5,3.3,i,-0.9,-0.7,6.7,6.3,

# Screens from PubChem BioAssay.
